# Screening data from PubChem BioAssay.
# KCNQ2 block: KCNQ2 potassium channel inhibitors, primary screen, cell-based, CHO-K1, FluxOR thallium flux, B-score (AID 2156); O88943; 20 min; hits give low values; only compounds with negative scores are shown here; some inactives read as strong as hits; B-score at 10 µM; 1.1% of 310,000 active;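 active means fluorescence ratio B-score at most minus 3 library SDs, with starting brightness B-score within 2 library SDs, cut at about -5.5 in these data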
# Target sequence (O88943 whole entry, looked up): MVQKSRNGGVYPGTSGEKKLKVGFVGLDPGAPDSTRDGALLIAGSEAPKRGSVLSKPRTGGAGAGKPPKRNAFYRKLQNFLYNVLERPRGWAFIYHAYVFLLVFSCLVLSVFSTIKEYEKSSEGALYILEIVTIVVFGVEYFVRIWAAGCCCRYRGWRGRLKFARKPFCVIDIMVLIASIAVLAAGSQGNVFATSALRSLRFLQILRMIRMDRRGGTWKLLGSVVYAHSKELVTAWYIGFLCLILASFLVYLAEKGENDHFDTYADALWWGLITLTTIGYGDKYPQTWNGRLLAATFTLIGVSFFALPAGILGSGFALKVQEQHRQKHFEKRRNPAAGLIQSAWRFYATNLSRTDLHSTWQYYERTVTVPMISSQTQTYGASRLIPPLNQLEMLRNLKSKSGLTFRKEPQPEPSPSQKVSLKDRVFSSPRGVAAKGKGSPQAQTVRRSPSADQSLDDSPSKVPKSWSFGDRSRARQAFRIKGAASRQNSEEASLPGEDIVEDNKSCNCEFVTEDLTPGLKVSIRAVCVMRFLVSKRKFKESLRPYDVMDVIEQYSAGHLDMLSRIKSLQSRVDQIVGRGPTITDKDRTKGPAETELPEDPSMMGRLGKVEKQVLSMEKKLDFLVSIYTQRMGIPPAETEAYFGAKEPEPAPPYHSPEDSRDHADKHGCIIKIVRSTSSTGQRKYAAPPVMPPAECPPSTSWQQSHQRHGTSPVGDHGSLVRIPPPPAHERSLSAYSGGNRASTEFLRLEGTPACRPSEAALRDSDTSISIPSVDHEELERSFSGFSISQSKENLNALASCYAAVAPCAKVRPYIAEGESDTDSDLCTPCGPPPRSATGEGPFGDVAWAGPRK
# KCNQ2 block baseline: also measured in KCNQ2 block; calls as there; B-score; measured here: initial fluorescence intensity artifact check;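 brightness before thallium and not channel activity; 0 = typical well and far values either way flag optical interference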
# * marks the source's active call; other numbers are inactive results; i = inactive.
# The opening 5 records, to show the layout:
SMILES	KCNQ2 block	KCNQ2 block baseline
Cc1ccc(CNC(=O)CCS(=O)(=O)c2ccc3nc(C)sc3c2)cc1	i	0.52
COC(=O)c1cc(NC(=O)c2c(C)noc2C)ccc1N1CCOCC1	i	0.31
O=C1N/C(=N/N=C/c2ccco2)SC1Cc1ccccc1 (stereo not given)	i	-0.37
CCCCNC(=O)Oc1ccc(C(=O)N2c3ccccc3NC(=O)C2C)cc1 (stereo not given)	i	-0.08
CCn1c(N2CCN(C(=S)NCCc3ccccc3)CC2)nc2ccccc21	i	-0.03

# Main list, repeating the preview:
SMILES	KCNQ2 block	KCNQ2 block baseline
Cc1ccc(CNC(=O)CCS(=O)(=O)c2ccc3nc(C)sc3c2)cc1	i	0.52
COC(=O)c1cc(NC(=O)c2c(C)noc2C)ccc1N1CCOCC1	i	0.31
O=C1N/C(=N/N=C/c2ccco2)SC1Cc1ccccc1 (stereo not given)	i	-0.37
CCCCNC(=O)Oc1ccc(C(=O)N2c3ccccc3NC(=O)C2C)cc1 (stereo not given)	i	-0.08
CCn1c(N2CCN(C(=S)NCCc3ccccc3)CC2)nc2ccccc21	i	-0.03
O=C(CCN1CCN(c2ccccc2)CC1)c1ccc(Br)cc1	-8.24*	-0.46*
O=C(/C=C/c1ccccc1)Nn1c(-c2cccs2)nc2ccccc2c1=O	i	1.84
CC(C)(NO)/C(=N\O)c1ccc(Cl)cc1	i	-0.04
Cc1ccc(-c2nc3cnccn3c2Nc2ccc3c(c2)OCO3)cc1	i	-1.43
Cc1[nH]c(=O)[nH]c(=O)c1S(=O)(=O)Nc1ccc(S(N)(=O)=O)cc1	i	0.73
COc1ccc(/C=C/C(=O)Nc2cc(=O)n(C)c(=O)n2C)cc1	i	-0.02
C=CCn1c(SCC(N)=O)nnc1-c1ccccc1O	i	-0.66
CNC(=S)N/N=C/c1cn(CCOc2ccccc2OC)c2ccccc12	i	1.38
Cc1ccccc1N(C(=O)CCCC(=O)Nc1ccccn1)C(C(=O)NC1CCCC1)c1ccc(O)cc1 (stereo not given)	i	-0.37
O=C(Cn1ncn2c(cc3ccccc32)c1=O)NCCC1=CCCCC1	i	-0.66
O=C(c1ccc2nc[nH]c2c1)N1CCN(c2cccc(Cl)c2)CC1	i	0.99
COC(=O)C1=C(C)NC(C)=C(C(=O)OC(C)C)C1c1cccc2nonc12 (stereo not given)	i	-1.92
COC(C(=O)Nc1ccc(S(=O)(=O)Nc2cccc3ccccc23)cc1)c1ccccc1 (stereo not given)	i	-1.49
CC(=O)N1CCc2cc(S(=O)(=O)NCC(=O)NCc3ccc(F)cc3)ccc21	i	-0.44
Cc1sc(NC(=O)c2ccco2)c(C(c2ccc(F)cc2)N2CCN(C)CC2)c1C (stereo not given)	i	-2.6
COC(=O)[C@H]1[C@H](CCc2ccccc2)NC(=O)N(Cc2ccccc2)[C@@H]1C	i	-0.02
Cc1cccc2c1NC1(CCCC1)CC2C (stereo not given)	i	-1.69
CCOC(=O)C1CCCN(c2nc3ccccc3nc2C(C#N)C(=O)OCCOC)C1 (stereo not given)	i	0.26
CCN(CC)C(=O)Cn1c(=O)n(Cc2ccc(F)cc2)c(=O)c2sccc21	i	0.02
COc1ccc(S(=O)(=O)NC(CC(=O)NCCc2ccccc2)c2ccco2)cc1 (stereo not given)	i	0.6
CN(C)c1ccc(C=NCCc2ccc(S(N)(=O)=O)cc2)cc1	i	1.25
Cc1cc(C(=O)Nc2c(F)cc(F)cc2Br)cs1	i	-0.65
C/C(CC(=O)NC1CCCC1)=N\NC(=O)Cc1csc(N)n1	i	-1.36
COc1ccc(CNc2nc(-c3cccnc3)nn2C(C)=O)cc1	i	0.01
NC(=O)c1cc([N+](=O)[O-])ccc1N1CCN(Cc2ccccc2)CC1	i	-0.02
CCN(Cc1ccccc1)C(c1ccccn1)c1nnnn1C(C)(C)CC (stereo not given)	i	0.84
COc1cc(-c2nc(-c3cccc(C)c3)no2)cc(OC)c1OC	i	1.38
O=C(CN(C(=O)c1csnn1)c1ccccc1C(F)(F)F)NC1CCCCC1	i	1.19
COc1ccc(C(CNC(=O)C2CC(=O)N(Cc3ccc(C)cc3)C2)N(C)C)cc1 (stereo not given)	i	-0.09
CCc1ccc(NC(=O)COc2coc(CN3CCc4ccccc4C3)cc2=O)cc1	i	0.31
CCN(CC)S(=O)(=O)c1ccc(/C=C/C(=O)Nc2c(C)n(C)n(-c3ccccc3)c2=O)cc1	i	0.97
COC(=O)CCS(=O)(=O)c1nc(-c2ccccc2)cc(C(F)(F)F)n1	i	-1.76
O=C(c1ccc(-c2ccc(Cl)cc2Cl)o1)N1CCOCC1	i	-0.41
COc1cccc(CNc2nc(C(F)(F)F)nc3ccccc23)c1	i	-1.79
COC(=O)Cn1c(=O)c2c(nc(Br)n2CC(=O)OC)n(C)c1=O	i	-0.04
CNC(=S)N1N=C(c2ccc(C)cc2)CC1c1ccc(Cl)cc1 (stereo not given)	i	0.42
COc1ccc(C2=NN(C(=O)CCC(=O)O)C(c3ccc(Br)cc3)C2)cc1 (stereo not given)	i	-0.1
N#C/C(=C\c1ccc(N2CCCCC2)o1)C(=O)Nc1cccc(Br)c1	i	0.18
O=C(/C=C/c1ccc2c(c1)OCO2)NCCSCc1cccc(Cl)c1	i	1.93
O=C(N/C(=C/c1ccc(Br)cc1)C(=O)N1CCOCC1)c1ccco1	i	-1.32
O=S(=O)(c1ccc(-c2ccon2)s1)N1CCOCC1	i	-0.46
CCc1ccccc1NC(=O)Cn1nnc(-c2cccnc2)n1	i	1.83
COCC(=O)NCCNc1nc2ccc(C)cc2cc1C	i	-0.37
Oc1ccc2nnc3c(Br)cnn3c2c1	i	71.3
COc1ccc(CCNC(=S)NC(=O)c2cc(OC)c(OC)c(OC)c2)cc1OC	i	-0.82
Cc1cccc(OCc2nnc(SCC(=O)Nc3ccc(C)c(C)c3)o2)c1	i	-0.27
CCOC(=O)N1CCN(C2OC(=O)c3ccccc32)CC1 (stereo not given)	i	1.11
Cc1ccc2c(c1)C1CN(C)CCC1N2Sc1ccccc1[N+](=O)[O-] (stereo not given)	i	-0.01
COc1ccc(-c2noc(CCC(N)=O)n2)cc1OC	i	-1.57
COc1ccccc1-c1cc(C(=O)Nc2ccc(F)cc2F)no1	i	1.88
COc1ccc(S(=O)(=O)N2CCN(CCC(=O)Nc3ccc(F)cc3)CC2)cc1	i	0.69
Cc1ccc(S(=O)(=O)CCCS(=O)(=O)c2ccc(C)cc2)cc1	i	-0.96
Cc1ccc(-n2ncc3c(=O)n(CC(=O)NCc4ccco4)cnc32)cc1	i	0.46
CCOC(=O)c1sc(=NC(=O)c2cccc(OC)c2)n(C)c1C	i	0.41
COc1ccccc1NS(=O)(=O)c1cc(NC(C)=O)ccc1N1CCCCC1	i	2.09

# Next section.
SMILES	KCNQ2 block	KCNQ2 block baseline
CCn1c(CSCc2c(Cl)cccc2Cl)n[nH]c1=S	i	-1.13
CCCCn1c(N)c(N(CC(C)C)C(=O)C2=NN(c3cc(C)ccc3C)C(=O)CC2)c(=O)[nH]c1=O	i	2.16
COC(CNc1cc(=O)oc2ccccc12)OC	i	1.69
Cc1ccc(NC(=O)c2noc(C(C)C)c2[N+](=O)[O-])cc1	i	1.81
COc1ccc(CCNC(=O)c2cc3sc(Cl)cc3n2C)cc1OC	i	1.69
Cc1ccccc1C(=O)c1cn[nH]c1-c1ccccc1O	i	0.15
COC(=O)Cn1nnc(-c2cccc(OC)c2)n1	i	0.1
COc1ccc(NC(=O)COc2ccccc2C)cc1S(=O)(=O)N1CCCCC1	i	-3.03
CC(=O)NS(=O)(=O)c1ccc(NC(=S)NC(=O)COc2ccccc2C)cc1	i	-0.16
Cc1ccc(C(=O)NCc2cccnc2)cc1S(=O)(=O)N1CCCCCC1	i	1.31
O=C(O)CCCn1c(=O)[nH]c2ccccc2c1=O	i	0.18
COc1ccc(Cc2nc(C(=O)Nc3ccccc3)cs2)cc1	i	-0.13
Cc1ccc(S(=O)(=O)Oc2ccc(C3C4=C(CCCC4=O)N(CCC(=O)O)C4=C3C(=O)CCC4)cc2Cl)cc1	i	-0.1
O=P(/C(=N/O)Sc1ccccc1)(N1CCOCC1)N1CCOCC1	i	6.81
Cn1c(SCC(=O)C(C)(C)C)nnc1-c1ccc(F)cc1	i	2.05

# Compounds shown so far that contain a nitro group on carbon (3):
SMILES	KCNQ2 block	KCNQ2 block baseline
NC(=O)c1cc([N+](=O)[O-])ccc1N1CCN(Cc2ccccc2)CC1	i	-0.02
Cc1ccc2c(c1)C1CN(C)CCC1N2Sc1ccccc1[N+](=O)[O-] (stereo not given)	i	-0.01
Cc1ccc(NC(=O)c2noc(C(C)C)c2[N+](=O)[O-])cc1	i	1.81

# Additional structures:
# Below each compound – KCNQ2 block | KCNQ2 block baseline
COc1ccc(C(=O)NC2(C(F)(F)F)NC(=O)N(CCCc3ccccc3)C2=O)cc1OC (stereo not given)
  i | -0.25
COc1ccc(C(=O)N2CCn3c(C)ccc3C2C)cc1 (stereo not given)
  i | -0.37
Cc1c(Cc2ccccc2)c(=O)oc2cc(OC(=O)c3ccccc3)ccc12
  i | 0.29
COCCN1C(=O)/C(=C/c2ccc(Oc3ccc([N+](=O)[O-])cn3)c(OC)c2)SC1=Nc1ccccc1
  -6.87* | 1.56*
Cc1ccc(/C=C2/NC(=O)N(Cc3ccc(Br)cc3)C2=O)o1
  i | -0.02
Cc1nn(CC(=O)NCCc2cccs2)c(=O)c2cc3ccccc3n12
  i | -0.01
O=C(CN1CCCC1)NCC1(c2ccccc2)CCOCC1
  i | 3.09
CCCCNC(=O)CCn1nc(-c2ccc(Cl)cc2)ccc1=O
  i | -0.22
Cn1ccc(CC(=O)N2CCC(N3CCC(C(=O)N4CCCC4)CC3)CC2)c1
  i | -0.32
Cc1c(Cl)cccc1NC(=O)Cn1c(CCC(=O)O)ccc1-c1ccccc1
  i | 1.08
Cc1ccc(C(C)C)c(OCCCN2C(=O)NC(C)(C)C2=O)c1
  i | 2.02
CC(=O)Nc1ccc(N=Cc2ccc[nH]2)cc1
  i | -0.26
C=CCn1c(SCC(=O)Nc2nc(C)cs2)nnc1C(C)NC(=O)c1ccccc1Cl (stereo not given)
  i | -0.63
CC1=CC(C#N)(C#N)C(C#N)(C#N)C(c2ccccc2)N1 (stereo not given)
  i | 2.17
Cc1ccc2nc(NC(=O)C3CSC4(C)CCC(=O)N34)sc2c1 (stereo not given)
  i | -1.52
CC1=CC(C)(C)N=C(Nc2nc(C)c3cc(C)cc(C)c3n2)N1
  i | -1.37
CCOC(=O)N1CCN(CC(=O)c2ccc(O)cc2O)CC1
  i | 0.39
NNC(=O)c1ccc(COc2cccc3ccccc23)cc1
  i | 0.1
CN1CCN(CC#CCC(O)(c2ccccc2)c2ccccc2)CC1
  i | 1.62
CCCn1cnc2scc(-c3ccc(OC)cc3)c2c1=O
  i | 1.33
CCO[C@@H]1OC(C(=O)N2CCN(Cc3ccc4c(c3)OCO4)CC2)=C[C@H](C2CCCCC2)[C@H]1CCCO
  i | -1.96
CC1(C)Cc2c(C#N)c(N3CCOCC3)nc(-c3ccccc3)c2CO1
  i | -1.3
COc1ccc(NC(=O)Cn2nnc(C(=O)NCc3ccccc3)c2N)c(OC)c1
  i | 1.85
CCN1CCN(c2ccc(S(=O)(=O)N3CCOCC3)cc2NC(=O)c2ccc(C(F)(F)F)cc2)CC1
  i | 1.33
C[C@H](NC(=O)[C@@H]1Cc2ccccc2CN1)C(=O)Nc1ccc2c(c1)OCO2
  i | -0.14
O=C(CCCN1C(=O)/C(=C\c2cccs2)SC1=S)Nc1ccc(O)cc1C(=O)O
  i | 2.1
COC(=O)C[C@H]1c2cc(F)ccc2S(=O)(=O)N1Cc1ccccc1OC
  i | -0.03
O=c1oc(-c2ccc(F)cc2)nc2ccsc12
  i | 0.36
O=C1CCC(c2ccc3c(c2)CCC3)=NN1
  i | -0.66
Cc1cc(N/N=C/c2ccco2)c2ccccc2n1
  i | -0.33
COc1cccc(NC(=O)CN(C)C(=O)c2cccc(S(=O)(=O)N3CCN(c4ccc(F)cc4)CC3)c2)c1
  i | 2.79
Cc1ccc(C2=NNC(C(O)C(O)C(O)CO)S2)cc1 (stereo not given)
  i | 0.1
CN(Cc1ccc(F)cc1)C(=O)c1ccc(NS(=O)(=O)c2ccc3[nH]c(=O)[nH]c3c2)cc1
  i | 2.48
COC(=O)C(C(=O)OC)C(c1ccccc1)C(C(=O)c1ccccc1)[N+](=O)[O-] (stereo not given)
  i | 0.02
Cc1ccc(OCCN2C(=O)S/C(=C\c3ccc(C)o3)C2=O)cc1
  i | 0.59
O=C(Nc1c2c(nn1-c1ccc(F)cc1)CSC2)c1ccc(S(=O)(=O)N2CCOCC2)cc1
  i | -1.06
CCOc1ccc(CCNC(=O)c2ccc3ccccc3n2)cc1OCC
  i | 2.54
CC(/C=C1\SC(=S)N(CC(=O)O)C1=O)=C\c1ccccc1
  i | -2.01
Cc1ccc(OCCCCn2cnc3ccccc32)c(C)c1
  i | -0.22
O=C(CN1CCC(NC(=O)c2ccccc2Cl)CC1)NCc1ccccc1
  i | -0.06
O=C(NC12CC3CC(CC(C3)C1)C2)c1cnccn1
  i | -0.02
CC(C)CCNC(=O)C(=O)Nc1cc2c3c(c1)CCC(=O)N3CCC2
  i | 0.75
COc1ccc(Nc2nnc(SCc3cn4c(C)cccc4n3)s2)cc1
  i | -0.43
CCc1nc2n[nH]c(N)c2c2c1CCCC2
  i | 0.24
CCC(=O)c1ccc(N2CCCCCC2)c(F)c1
  i | 0.2
COc1ccccc1N1CCN(Cc2ccc(C(=O)O)cc2)CC1
  i | -0.26
Cc1nn(C)c(C)c1S(=O)(=O)N(CC(=O)Nc1ccccn1)c1ccc(C(C)C)cc1
  i | -0.77
Fc1ccc(Sc2nc(-c3ccccc3)nnc2C(F)(F)F)cc1
  i | -0.24
COc1ccc(-c2nc(-c3cccc(C)c3)no2)cc1OC
  i | -0.04

# These rows are one share of the data (hit frequency here may not be typical).
